# Screening results deposited in PubChem BioAssay by ICCB-Longwood Screening Facility, Harvard Medical School.
# Sa helicase inh – inhibitors of S. aureus replicative helicase, primary screen, biochemical, fluorescence unwinding readout. replicative DNA helicase (DnaC/DnaB), Staphylococcus aureus. purified S. aureus helicase, fluorescence unwinding assay; about half of the hits fall short of the stated cut. inhibition, %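 (tested at about 80 µM)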. 0.05% of 120,000 active. AID 485395, 2010;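 active means both duplicates at 50% or more, or one of them with a favoured structure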;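 further: 0% = mean of negative control wells and 100% = mean of positive control wells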
# MgrA-DNA mod – S. aureus MgrA activity modulators, primary screen, biochemical, S. aureus Newman, fluorescence polarization; MgrA-DNA binding; inhibition, %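 (about 10 µg/mL by stock and volumes)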; 0.13% of 84,000 active;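 active means above 50% in either of two replicates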;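 further: 0% = protein plus DNA without compound and 100% = DNA alone without protein; higher means less MgrA bound to DNA so lower polarization; one replicate is shown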
# * marks the source's active call; other numbers are inactive results; . = no result given; & = joins results of further samples.
Sa helicase inh	MgrA-DNA mod	SMILES
.	4.8	COc1nc(C)c(-c2csc(C)n2)cc1C#N
0.0	3.0	C/C(=N\NS(=O)(=O)c1ccc(Br)cc1)c1cccs1
15.0	4.2	O=C(c1ccc(Cl)cc1)N1CCCCC1
.	0.2	N#CCC(=O)NCc1cccs1
-7.0	.	O=C(COc1ccc2ccc(=O)oc2c1)c1ccc2c(c1)OCCO2
-3.0	0.1	NCC1CCCN(CCO)C1 (stereo not drawn)
8.0	.	O=C(CSc1nncs1)NCCCc1ccccc1
26.0	.	COc1ccc(/C(C)=N/NC(=O)c2cc(C3CC3)[nH]n2)cc1OC
.	-1.7	CC1CCc2c(sc(NC(=O)CSc3nncn3C)c2C#N)C1 (stereo not drawn)
.	-1.8	CC1=NN(c2ccc(C)cc2)C(=O)C1=C1SCCS1
-2.0	.	Cc1cc(C(=O)COc2ccccc2C#N)c(C)n1-c1cccc(S(=O)(=O)N2CCOCC2)c1
-9.0	0.0	O=C(Cc1nc2ccccc2[nH]1)NCc1ccccn1
13.0	.	COc1cc(C2CC(=O)c3c([nH]c(C(=O)OCCOc4ccccc4)c3C)C2)cc(OC)c1OC (stereo not drawn)
4.0	.	O=C(COC(=O)c1ccc(S(=O)(=O)N2CCCCC2)cc1)c1ccccc1
11.0	6.8	CC(NC(=O)c1ccccc1)c1nnc(SCC(=O)c2ccccc2)n1C (stereo not drawn)
.	-1.2	Cc1ccc(-c2nn(CCO)c(=O)c3ccccc23)cc1C
5.0	.	COC(=O)c1ccc(CSC(=N)N)cc1
.	3.2	Fc1ccc(-c2oncc2-c2nnnn2-c2ccc(Cl)cc2)cc1
9.0	.	Cc1ccc(S(=O)(=O)N2CCN(Cn3nnc(-c4ccccc4)n3)CC2)cc1
1.0	.	CCOC(=O)[C@@H]1Nc2ccc(Br)cc2[C@@H]2C=CC[C@H]12
4.0	1.6	CCC1C/C(=C/c2ccccc2OC)C(=O)/C(=C/c2ccccc2OC)C1 (stereo not drawn)
.	-7.3&0.1	CN1CCN(CC(=O)N2c3ccccc3C(=O)Nc3cccnc32)CC1
9.0	1.0	CC(C)(C)n1cnc2cc(N=Cc3ccccc3O)ccc21
25.0	.	O=C(c1n[nH]c(=O)c2ccccc12)N1CCC(Cc2ccccc2)CC1
10.0	-0.4	Fc1ccccc1CSc1nnc2c(n1)[nH]c1ccccc12
-28.0	.	COC(=O)/C=C1\S/C(=N\N=C\c2ccccc2)NC1=O
-8.0	.	O=C1CNc2c(F)c(F)c(F)c(F)c2O1
5.0	.	O=S(=O)(NCc1cn2ccsc2n1)c1ccc2c(c1)OCCO2
8.0	.	N#Cc1ccc(OCC(=O)N/N=C2\CCc3ccccc32)cc1
27.0	3.6	NC1=C(c2ccc3ccccc3n2)C(=O)CS1
-5.0	-0.8	CC(C)C(NC(=O)c1ccc(C23CC4CC(CC(C4)C2)C3)cc1)C(=O)NCC1CCCO1 (stereo not drawn)
12.0	.	O=C(O)CCC(=O)Nc1ccn(Cc2ccc(Cl)cc2)n1
-17.0	-0.5	Cc1ccc(-n2c(C)cc(C(=O)O)c2C)cc1
-4.0	.	Cc1ccc(NC(=O)Cn2nnn(-c3ccccc3)c2=O)cc1C
11.0	.	Cc1ccc(CC(S)C(=O)O)cc1C (stereo not drawn)
18.0	.	O=C(O)CCC1(C(=O)O)NC(c2ccc(O)cc2O)C2C(=O)N(Cc3ccccc3)C(=O)C21 (stereo not drawn)
10.0	.	Cc1cccc(OCc2nnc3n2-c2ccccc2SC3)c1
6.0	-2.6	COc1ccc(C(=O)Nc2ccn(-c3ccccc3)n2)c(OC)c1
-6.0	.	NC(=O)COC(=O)C1CSC2(c3ccc(F)cc3)CCC(=O)N12 (stereo not drawn)
-7.0	.	COc1ccccc1OCc1nc2ccccc2n1CC(C)C
.	2.2	COc1ccc(-n2ccc(-c3ccccc3)nc2=S)cc1
0.0	-2.8	OC(C#CC(O)(c1ccccc1)c1ccccc1)c1ccc(F)cc1 (stereo not drawn)
-2.0	.	Cc1ccc(S(=O)(=O)NCCC(=O)N2CCC2)cc1C
4.0	1.5	CN(C)c1ccc(-c2ccncc2)cc1
-25.0	1.6	CCOC(=O)c1ccc(NC(=O)c2cc(=O)[nH]c3ccccc23)cc1
.	-1.4	O=C(CSc1nccc(-c2cccs2)n1)c1cc(-c2ccccc2)no1
13.0	.	CCOc1ccc(NC(=O)C23CC4CC(CC(O)(C4)C2)C3)cc1
.	-3.5	Cc1nnsc1C(=O)NCC1COc2ccccc2O1 (stereo not drawn)
10.0	-1.9	Cc1cc(OC(C)c2nc(-c3nonc3N)no2)ccc1Cl (stereo not drawn)
9.0	1.6	COc1ccccc1CN(C)CCN
.	-0.1	O=C1CSC(c2cccs2)C1 (stereo not drawn)
-17.0	.	Cc1ccc(C(=O)C(C)OC(=O)Cn2c(C)csc2=O)cc1 (stereo not drawn)
-7.0	3.2	CC12CCC(=O)N1c1ccccc1C(=O)N2c1ccccc1 (stereo not drawn)
-20.0	-3.4	Cn1cnnc1SCC(=O)NC1CCCCCC1
-7.0	.	CC(C)CSc1nc2ccccc2c(=O)[nH]1
-28.0	.	COc1ccc(C(CC(=O)N2CCN(c3ccccc3F)CC2)N2Cc3ccccc3C2=O)cc1OC (stereo not drawn)
1.0	-0.5	C=C(C)C(=O)OCCc1ccc(O)c(-n2nc3ccccc3n2)c1
5.0	-1.2	Cc1ccc2oc(-c3cccc(NC(=O)CC(C)C)c3)nc2c1
1.0	3.2	CCN(CC)S(=O)(=O)c1ccc(Cl)c(OC)c1
-15.0	.	C=CCSc1n[nH]c(=O)n1-c1ccc2c(c1)OCCO2

# Continued:
Sa helicase inh	MgrA-DNA mod	SMILES
8.0	.	CC(NC(=O)Nc1ccccc1)C(c1ccccc1)N1CCN(C)CC1 (stereo not drawn)
16.0	.	Cc1nc2nc(NC(=O)C(C)N3C(=O)c4ccccc4C3=O)[nH]n2c(=O)c1C (stereo not drawn)
-12.0	.	CN(C)S(=O)(=O)C1CCS(=O)(=O)C1 (stereo not drawn)
7.0	-1.0	O=C(c1ccco1)N1CCN(c2cnn(-c3ccccc3)c(=O)c2Cl)CC1
-10.0	.	C=C(C)NC(=S)Nc1nccs1
0.0	.	CCCCCC1NC(=O)NC1CCCCCC(=O)O (stereo not drawn)
5.0	.	CCC1CCCCN1C(=O)c1cc2cc3cc(OC)ccc3nc2s1 (stereo not drawn)
15.0	-4.2	C(=C\c1ccccc1)/CN1CCN(Cc2c[nH]c3ccccc23)CC1
14.0	.	CCNC(=O)C1CCN(c2cnccn2)CC1
9.0	.	CN(CC(=O)N1CCCCCC1)S(=O)(=O)c1ccc2[nH]c3c(c2c1)CCCC3
5.0	.	CCOc1ccc(-c2nc(-c3cccs3)c(CC(=O)O)s2)cc1OC
12.0	.	COc1ccc(CN(C)CC(O)COc2ccc(C#N)cc2)cc1 (stereo not drawn)
-6.0	1.3	O=C1c2ccccc2C(Nc2ccc(S(=O)(=O)N3CCOCC3)cc2)N1Cc1ccccc1Cl (stereo not drawn)
34.0	1.1	CN(C)Cc1c(O)ccc2c(=O)c(-c3ccccc3)c(C(F)(F)F)oc12
-17.0	.	COc1ccccc1C(=O)Nc1ncnc2sc3c(c12)CCCC3
0.0	2.7	CN(C)c1ccc(C(=O)N2CCCC2)cc1
2.0	.	CC(Oc1ccccc1F)c1nnc(SCc2ccc(C#N)cc2)o1 (stereo not drawn)
-5.0	-0.6	Cn1c(=O)c(C(=O)Nc2cccc(O)c2)c(O)c2ccccc21
-22.0	.	Cc1oc2ncn(C)c(=O)c2c1C(=O)Nc1ccccc1
4.0	.	CCOC(=O)C(C#N)C(Cc1ccccc1)c1ccco1 (stereo not drawn)
-3.0	1.2	CCOC(=O)N1CCC(NC(=O)C(NC(=O)C2CCC(C)CC2)C(C)C)CC1 (stereo not drawn)
13.0	2.5	Cc1cc(Br)ccc1NC(=O)CS(=O)(=O)c1cccc2nsnc12
6.0	.	c1ccc(Oc2cccc(CSc3nnc(-c4ccc5c(c4)OCO5)o3)c2)cc1
-1.0	.	C/C(=N\OCC(=O)Nc1ccccc1OC(F)F)c1cc2ccccc2o1
13.0	-0.4	CCC(Sc1nc2ccncc2[nH]1)C(=O)N(CC)CC (stereo not drawn)
17.0	1.1	CCOc1cccc2cc(C(=O)N3CCN(C/C=C/c4ccccc4)CC3)c(=O)oc12
0.0	.	O=C(CSc1ccc2nnc(-c3ccc(F)cc3)n2n1)OCc1ccccc1
.	0.7	O=C(NCCNc1ccc(C(F)(F)F)cc1[N+](=O)[O-])c1cccs1
-10.0	.	CNC(=S)N/N=C(\C)c1ccc(-n2ccnc2)cc1
15.0	.	N#Cc1c(N2CCCC(C(=O)O)C2)nc(N)c2c(N)nc3c(c12)CC(=O)N3C1CCCC1 (stereo not drawn)
11.0	.	COc1ccc2oc(=O)c(C(=O)NC3=C(C#N)CCC3)cc2c1
.	0.8&-0.6	C[N+](C)(C)CCOC(N)=O
11.0	.	COc1cccc(NC(=O)c2ccc(-n3cnc4cccnc43)cc2)c1
3.0	-0.7	N#CCC(c1ccccc1)c1ccccc1
.	-0.9	COc1cc(-c2nc3ccccc3c(=O)n2NC(=O)c2ccccc2Cl)cc(OC)c1OC
17.0	-1.2	CN1c2ccccc2Oc2nnc(N3CCN(c4ccccc4)CC3)cc21
15.0	.	Cc1cc(=O)cc(C)n1-c1ccc(C(=O)O)cc1
-12.0	3.7	O=C(O)Cc1c(C(=O)O)[nH]c2ccc(C(=O)O)cc12
-2.0	.	CCOc1ccc(C(=O)N/N=C/c2c(C)[nH]c(=O)[nH]c2=O)cc1
11.0	1.5	NCc1ccc(CO)cc1
17.0	0.6	CCCN1C(=O)C2(c3ccccc31)c1c(oc3ccccc3c1=O)C(=O)N2CCOC (stereo not drawn)
15.0	.	CSc1nnc(C)c(=O)n1COC(=O)C1CC(=O)N(c2ccc(C)cc2)C1 (stereo not drawn)
0.0	-0.8	CC(C)(C)c1csc(SCC(=O)Nc2nccs2)n1
5.0	.	CC(C)Cn1c(N(C)C)nc2c1c(=O)[nH]c(=O)n2C
-2.0	7.3	COc1ccccc1NC(=S)N(CCO)Cc1cc2cc3c(cc2[nH]c1=O)OCCO3
.	0.2	Cc1noc(C)c1NC(=O)NCc1ccc2c(c1)OCO2
9.0	2.0	N#Cc1nc(-c2ccc(Cl)cc2)oc1NCCc1ccccc1
3.0	.	Cc1ccc(CNC(=O)CCS(=O)(=O)c2ccc3c(c2)oc(=O)n3C)cc1
17.0	.	CCOC(=O)c1[nH]c2c(c1-c1ccc(OC)cc1)C(=O)CC(c1ccc(OC)c(OC)c1)C2 (stereo not drawn)
.	1.6	Cc1c(C)c(C)c(CN2CCCCC2)c(C)c1C
-11.0	-0.4	COc1ccc(-c2c(C)c3ccccc3oc2=O)cc1
-6.0	.	COC(=O)c1ccc2nc(NC(=O)C(C)C)sc2c1
5.0	-1.0	CCOC(=O)c1cccc(NC(=O)c2ccc(-c3ccccc3)s2)c1
9.0	2.0	CC(NC(=O)c1ccc(C23CC4CC(CC(C4)C2)C3)cc1)C(=O)O (stereo not drawn)
4.0	.	CCSc1nc2c(cc1C#N)C(=O)CCC2
-16.0	.	CC1CCN(c2nncc3ccccc23)CC1
-3.0	.	Cc1ccc2nc(NC(=O)CSc3nccn3-c3ccccc3)sc2c1
3.0	.	O=c1oc2ccccc2cc1-c1nc(-c2ccncc2)n[nH]1
-2.0	.	NS(=O)(=O)c1ccc(-n2cccc2C=C2C(=O)NC(=S)NC2=O)cc1
-3.0	.	COc1ccc(C)cc1NC(=O)C(OC(=O)C1=NNC(=O)CC1)c1ccccc1 (stereo not drawn)

# Grouped by structure: the entries above containing a CF3 group
Sa helicase inh	MgrA-DNA mod	SMILES
34.0	1.1	CN(C)Cc1c(O)ccc2c(=O)c(-c3ccccc3)c(C(F)(F)F)oc12
.	0.7	O=C(NCCNc1ccc(C(F)(F)F)cc1[N+](=O)[O-])c1cccs1

# Further records.
Sa helicase inh	MgrA-DNA mod	SMILES
27.0	.	Cc1ccc(/C=C/C(=O)N[C@@H](Cc2ccccc2)c2nc3ccccc3[nH]2)o1
18.0	-4.2	Nc1nc(-c2ccc(OC(F)F)cc2)cs1
3.0	-4.1	Cc1ccnn1Cc1cc(C(=O)O)c2ccccc2n1
12.0	.	Cc1nc2cc(-c3ccccc3)nn2c(C)c1CCC(=O)NCCCN1CCCC1=O
2.0	.	Cc1cc(/C(N)=N/OC(=O)c2snnc2C)no1
.	2.5	Cc1cc(C)cc(C(N)=Nc2cccc(C#N)c2)c1

# Structural class: the entries above with two or more sulfur atoms
Sa helicase inh	MgrA-DNA mod	SMILES
0.0	3.0	C/C(=N\NS(=O)(=O)c1ccc(Br)cc1)c1cccs1
8.0	.	O=C(CSc1nncs1)NCCCc1ccccc1
.	-1.7	CC1CCc2c(sc(NC(=O)CSc3nncn3C)c2C#N)C1 (stereo not drawn)
.	-1.8	CC1=NN(c2ccc(C)cc2)C(=O)C1=C1SCCS1
5.0	.	O=S(=O)(NCc1cn2ccsc2n1)c1ccc2c(c1)OCCO2
.	-1.4	O=C(CSc1nccc(-c2cccs2)n1)c1cc(-c2ccccc2)no1
.	-0.1	O=C1CSC(c2cccs2)C1 (stereo not drawn)
-12.0	.	CN(C)S(=O)(=O)C1CCS(=O)(=O)C1 (stereo not drawn)
-10.0	.	C=C(C)NC(=S)Nc1nccs1
5.0	.	CCOc1ccc(-c2nc(-c3cccs3)c(CC(=O)O)s2)cc1OC
13.0	2.5	Cc1cc(Br)ccc1NC(=O)CS(=O)(=O)c1cccc2nsnc12
0.0	-0.8	CC(C)(C)c1csc(SCC(=O)Nc2nccs2)n1
-3.0	.	Cc1ccc2nc(NC(=O)CSc3nccn3-c3ccccc3)sc2c1
-2.0	.	NS(=O)(=O)c1ccc(-n2cccc2C=C2C(=O)NC(=S)NC2=O)cc1

# An excerpt (hit frequency here may not be typical).
